Screening data: PubChem BioAssay, Fisher Drug Discovery Resource Center
NPYLR7 agonist = mosquito NPYLR7 agonism; AID 1259423; activation, % at 10 µM; HEK293T NPYLR7/Galpha15, GCaMP6s calcium fluorescence; 270,000 compounds, 0.15% hits; in the data active = activation above about 40%;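 also: 0% = vehicle and 100% = reference agonist at the receptor; some compounds past the cut are filed as inactive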
NPYLR7 agonist max-min = also measured in NPYLR7 agonist; calls as there; activation, %; measured here: Max-Min RFU normalised activation; some inactives read as strong as hits;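 span of the calcium signal over five minutes; 0% = vehicle and 100% = native peptide agonist; compound fluorescence can raise it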
Starred values were filed as active, the others as inactive; & = joins results of further samples. The list is partial. The share of hits here may be higher or lower than overall.

SMILES | NPYLR7 agonist | NPYLR7 agonist max-min
COC(C)C(=O)NS(=O)(=O)Cc1ccc(Cl)nc1 (stereo not given) | 5.7 | 0.6
COc1ccc(-n2c(SCC(=O)N3CCN(C(=O)CCC4CCCC4)C(C)C3)nnc2-c2ccc(C)cc2)cc1 (stereo not given) | 14.0 | 19.1
CCCCc1ccc(-n2c(C)c(C)n3c4c(=O)n(CCOCC)c(=O)n(C)c4nc23)cc1 | 3.2 | 1.1
CCCOCCOC(=O)C1=C(C)NC2=C(C(=O)C(C(=O)OC)C(C)C2)C1c1ccc(C)o1 (stereo not given) | -0.1 | -2.2
S=c1[nH]nc(Cn2nnc3ccccc32)n1Cc1ccccc1 | -2.6 | -4.4
COC(=O)c1cc(C=O)c2ccc3ccccc3n12 | -15.9 | -25.2
COc1ccc(C2=NN(C(C)=O)C(c3nc4ccccc4[nH]3)C2)cc1 (stereo not given) | 11.4 | 15.9
C=CCCC(O)CN(CC(=O)N1CCc2sccc2C1COc1ccc(C)cc1)Cc1ccco1 (stereo not given) | 0.9 | 9.6
CCN(CC)S(=O)(=O)c1cccc(C(=O)NNC(=O)C2CC=CCC2)c1 (stereo not given) | 6.5 | 5.4
CCc1cc(C(=O)NC2CCCc3c2cnn3-c2ccc(F)cc2F)no1 (stereo not given) | 7.2 | 2.0
Cc1ccc(C)n1NC(=O)c1ccccc1 | 1.0 | -0.1
Cc1nc(-c2cccs2)sc1C(=O)OCc1cc(=O)n2c(C)csc2n1 | -2.3 | 2.3
CC1(C(=O)NS(=O)(=O)c2cccc(Cl)c2)CCN1C(=O)C1CC1 (stereo not given) | 4.2 | 1.8
Clc1ccccc1Cn1cccc1C1=NCCO1 | 11.4 | 1.7
CCCn1cc(CN2CCC(n3nccc3NC(=O)CCOc3ccccc3)CC2)c(C)n1 | -0.9 | -2.9
CC(=O)NC12CC3CC(C1)CC(C(=O)Nc1nc4c(F)cc(F)cc4s1)(C3)C2 | 3.2 | 3.0
Cc1cccc(NC(=O)c2cc(S(=O)(=O)NCCN3CCCC3)ccc2Cl)c1 | -6.3 | -7.7
CCCCCCc1ccc(C(=O)N2CCSC2c2ccncc2)cc1 (stereo not given) | 9.5 | 13.4
Cc1cccn2c(=O)nc(SCc3ccc(Cl)c(Cl)c3)nc12 | -2.1 | -6.5
CS(=O)(=O)c1ccccc1S(=O)(=O)N1CCC(c2cn(Cc3ccc(C(F)(F)F)cc3)c3ccccc23)CC1 | 28.8 | 16.7
Cc1[nH]nc(C(=O)N2CCN(CC(F)(F)F)CC2)c1Br | 6.8 | 1.7
Cc1cc(NC(=O)c2ccc(-n3nccc3C)cc2)ccn1 | -3.6 | -2.0
CCCOc1ccc(-c2c(=O)n(OCc3ccccc3C(=O)OC)c3ccccc3[n+]2[O-])cc1 | 28.4 | 5.5
O=C(c1cnn(Cc2ccccc2)c1)N1CC(c2ccncc2)C1 | 1.5 | -2.0
Cc1cc(C)cc(NC(=O)c2cc(C)n(Cc3ccco3)c2C)c1 | -3.5 | -6.9
CC(=O)Nc1cccc(-c2c(C)c3ccccc3[nH]c2=O)c1 | -3.9 | -6.8
CC1(C(=O)NS(=O)(=O)c2ccc(Cl)cc2)CCN1C(=O)C/C=C/c1ccccc1 (stereo not given) | 4.8 | 3.4
CCn1ncnc1C(C)NCC(=O)NCc1ccccc1F (stereo not given) | 22.9 | 4.9
CCN(CC)CCCC(C)NC(=O)c1cc2n(n1)CCN(Cc1cc(OC)cc(OC)c1)C2=O (stereo not given) | -3.8 | -1.6
COc1c(Br)cc(Br)cc1/C=C1/SC(=S)N(CC(=O)O)C1=O | -6.2 | -10.5
Cc1ccccc1-c1nc2ccc(Cl)cn2c1NC(C)(C)CC(C)(C)C | -7.7 | -1.5
Cc1cc(C)nc(CCNC(=O)c2cc(COc3ccc4c(c3)CCCC4)on2)n1 | 17.0&-3.7 | 11.2&-3.1
COc1ccc(-n2nnc3c(N4CCN(C(=O)CC(C)C)CC4)ncnc32)cc1 | 8.3 | 2.6
CCn1c(=O)c2c(nc3n(CCCOC)c(C)c(C)n23)n(C)c1=O | 7.6 | 5.4
CC(/C=C1\N=C(c2ccc(C)cc2)OC1=O)=C\c1ccccc1 | -1.1 | -6.2
COc1cc(C2NC(=O)N(C)C(C)=C2C(=O)OCCOc2ccccc2)cc(Cl)c1O (stereo not given) | -1.4 | -5.3
O=C(Nc1ccc(Cl)cc1)N1CCSC1c1cccc(Oc2ccccc2)c1 (stereo not given) | -10.6 | -4.3
Cc1cc(-c2c(-c3ccccc3)ncn2CCc2cnccn2)c(C)n1C(C)C | 0.0 | -4.9
COC(=O)c1ccc(Cn2cnc3c(nnn3C)c2=O)o1 | 0.3 | 8.9
COc1ccc2c(c1OC)C(=O)N(c1ccc(C(C)=O)cc1)C2=O | 7.2 | 3.0
Cc1cccn2c(=O)c3cc(C(=O)NC4CCCC4)sc3nc12 | 11.5&-5.7 | 4.5&-6.6
CCc1ccc(C(=O)C[n+]2cccc3cc(OC)ccc32)cc1 | 21.0 | 1.8
O=C(O)C1(CCc2ccccc2)CCN(c2cnc3ccccc3n2)CC1 | -10.7 | -13.8
COCc1c(Br)c(C)nc(OCC(=O)N/N=C\c2cccc(OCc3ccc(Cl)cc3Cl)c2)c1C#N | -6.0 | -3.3
CCOc1ccc(C(=O)Oc2coc(CSc3nncn3C)cc2=O)cc1OCC | -9.5 | -12.0
COc1nc(C(=O)N2CCN(C)CC2C)cc2ccccc12 (stereo not given) | 0.6 | 4.9
COc1ccc(OC)c(-c2nc(CN(CCO)CC34CC5CC(CC(C5)C3)C4)c(C)o2)c1 | -9.1 | -13.0
COc1ccc(NC(=O)N2CCCC(C(=O)c3ccc4c5c(cccc35)CC4)C2)c(C)c1 (stereo not given) | -3.8 | -19.2
CCc1ccc(-c2nc(C(N)=O)c3[nH]c(=O)n(-c4ccc(OC)c(OC)c4)c3n2)cc1 | -4.2 | -7.7
O=C(O)c1cc(O)c2c(c1)C(=O)c1cccc(O)c1C2=O | -6.8 | -7.8
CC(=O)Nc1ccc(CN(Cc2ccc(F)cc2)CC2CCCO2)cc1 (stereo not given) | 24.8 | 9.5
CCOC(=O)CCNC(=O)N1CCCC1c1nc2ccc(F)cc2[nH]1 (stereo not given) | 17.0 | 11.9
C=CCN(CC(=O)N(Cc1ccc2c(c1)OCO2)Cc1sccc1C)C(=O)C1CCCC1 | -2.2 | -0.4
CC(C)N(Cc1cccc(OS(=O)(=O)c2cccc(C(F)(F)F)c2)c1)S(=O)(=O)c1ccc2ccccc2c1 | 3.9 | 18.5
O=S1(=O)CCC(N=Cc2c(F)cccc2Cl)C1 (stereo not given) | 6.1 | -0.3
Cc1ccc(NS(=O)(=O)c2ccc(Cl)c(C(=O)O)c2)cc1S(=O)(=O)N(C)C | -1.5 | 53.5
Cn1c(N)c(C(=O)CSc2nn(-c3ccc(F)cc3)c(=S)s2)c(=O)n(C)c1=O | -6.3 | -10.8
Cc1ccc(C2(O)CCN(Cc3cccc(Oc4ccccc4)c3)CC2)nc1 | 4.9 | 4.3
CCOC(=O)C1CCN(CC(=O)N2N=C(c3ccccc3OC)CC2c2cc(OC)ccc2OC)CC1 (stereo not given) | 20.7 | 21.4
CCN(CC)C(=O)Oc1ccc2c(ccn2Cc2cc(Br)cc(Br)c2)c1-c1ccc(C#N)cc1 | 10.1 | 4.6

20 successive compounds from above, for reference:
SMILES | NPYLR7 agonist | NPYLR7 agonist max-min
Cc1cc(-c2c(-c3ccccc3)ncn2CCc2cnccn2)c(C)n1C(C)C | 0.0 | -4.9
COC(=O)c1ccc(Cn2cnc3c(nnn3C)c2=O)o1 | 0.3 | 8.9
COc1ccc2c(c1OC)C(=O)N(c1ccc(C(C)=O)cc1)C2=O | 7.2 | 3.0
Cc1cccn2c(=O)c3cc(C(=O)NC4CCCC4)sc3nc12 | 11.5&-5.7 | 4.5&-6.6
CCc1ccc(C(=O)C[n+]2cccc3cc(OC)ccc32)cc1 | 21.0 | 1.8
O=C(O)C1(CCc2ccccc2)CCN(c2cnc3ccccc3n2)CC1 | -10.7 | -13.8
COCc1c(Br)c(C)nc(OCC(=O)N/N=C\c2cccc(OCc3ccc(Cl)cc3Cl)c2)c1C#N | -6.0 | -3.3
CCOc1ccc(C(=O)Oc2coc(CSc3nncn3C)cc2=O)cc1OCC | -9.5 | -12.0
COc1nc(C(=O)N2CCN(C)CC2C)cc2ccccc12 (stereo not given) | 0.6 | 4.9
COc1ccc(OC)c(-c2nc(CN(CCO)CC34CC5CC(CC(C5)C3)C4)c(C)o2)c1 | -9.1 | -13.0
COc1ccc(NC(=O)N2CCCC(C(=O)c3ccc4c5c(cccc35)CC4)C2)c(C)c1 (stereo not given) | -3.8 | -19.2
CCc1ccc(-c2nc(C(N)=O)c3[nH]c(=O)n(-c4ccc(OC)c(OC)c4)c3n2)cc1 | -4.2 | -7.7
O=C(O)c1cc(O)c2c(c1)C(=O)c1cccc(O)c1C2=O | -6.8 | -7.8
CC(=O)Nc1ccc(CN(Cc2ccc(F)cc2)CC2CCCO2)cc1 (stereo not given) | 24.8 | 9.5
CCOC(=O)CCNC(=O)N1CCCC1c1nc2ccc(F)cc2[nH]1 (stereo not given) | 17.0 | 11.9
C=CCN(CC(=O)N(Cc1ccc2c(c1)OCO2)Cc1sccc1C)C(=O)C1CCCC1 | -2.2 | -0.4
CC(C)N(Cc1cccc(OS(=O)(=O)c2cccc(C(F)(F)F)c2)c1)S(=O)(=O)c1ccc2ccccc2c1 | 3.9 | 18.5
O=S1(=O)CCC(N=Cc2c(F)cccc2Cl)C1 (stereo not given) | 6.1 | -0.3
Cc1ccc(NS(=O)(=O)c2ccc(Cl)c(C(=O)O)c2)cc1S(=O)(=O)N(C)C | -1.5 | 53.5
Cn1c(N)c(C(=O)CSc2nn(-c3ccc(F)cc3)c(=S)s2)c(=O)n(C)c1=O | -6.3 | -10.8

Other structures follow:
SMILES | NPYLR7 agonist | NPYLR7 agonist max-min
O=C(Cn1ncn2nc(-c3ccccc3)cc2c1=O)Nc1ccc(F)cc1 | -8.9 | -15.5
O=C(CN1CCCC1c1cccs1)NC(=O)NC1CCCCC1 (stereo not given) | 2.1 | 7.7
CCn1c(Nc2ccc(C)cc2)nc2ccccc21 | 5.9 | 5.3
COCCN(Cc1cccs1)C(=O)c1ccncc1Cl | 6.0 | 6.6
Cc1ccc(C)c(C2c3cccn3CCCN2Cc2ccsc2)c1 (stereo not given) | 1.7 | 5.6
CC(C)c1ccc(NC(=O)CSc2nnc(N)s2)cc1 | 7.5 | 1.0
COc1ccc(-c2cc3c(n(C)c2=O)CCN(C(=O)CCc2scnc2C)C3)c2ccc(C)nc12 | 5.3 | -7.1
OC(COCc1ccccc1)CN(Cc1ccccc1)CC1CC(c2ccccc2F)=NO1 (stereo not given) | -1.8 | 2.1
CN(C)CC1COCCN(Cc2cccn2-c2ccc(Cl)cn2)C1 (stereo not given) | -4.9 | -15.1
CN1CCN(N=c2cc(-c3ccccc3)oc3ccccc23)CC1 | 6.4 | 9.5
Brc1ccc(-c2noc(-c3ccccc3Br)n2)o1 | -0.4 | -3.2
O=C(CCCSc1ccc(NC(=O)C2CC2)nn1)Nc1ccc(F)c(F)c1 | 2.1 | 1.4
CNC(=O)c1ccc(S(=O)(=O)Nc2cc(C(F)(F)F)ccc2N2CCOCC2)cc1 | 1.3 | 0.6
CCN1CCN(CC(=O)N2CCOC(Cc3ccc(OC)cc3)C2)CC1 (stereo not given) | 5.7 | 1.0
O=C(NC1CCCc2ccccc21)C(C1CCCC1)N1CCN(C(=O)c2cccs2)CC1 (stereo not given) | -5.9 | -2.6
CCOC(=O)c1c(NC(=O)CSc2nc3ccccc3s2)sc2c1CCC2 | -3.0 | -3.0
Cc1c(C(=O)NCc2ccc(Cl)c(Cl)c2)sc(=O)n1Cc1ccc(F)cc1 | 14.9 | 12.3
Cc1cc(C(=O)NCC2CC2)c2c(Br)cccc2n1 | 13.4 | 12.4
CCOC(=O)c1cc(CCC(C)C)n(-c2ccc(C(=O)NC3CC3)cc2)n1 | 0.6 | 8.5
Cc1nn(C(C)C(=O)N2CCCC2)c(=O)c2cc3sccc3n12 (stereo not given) | 7.8 | 9.6
CCCCCCCC(=O)NCc1cccc(-c2ncc(-c3ccc(F)cc3)[nH]2)c1 | 0.8 | -5.8
CCOC(=O)c1cnc(-c2ccc(OC)c(OC)c2)nc1N(C)CCc1ccccn1 | 24.9 | 32.1
Cc1cc(C(=O)Cn2c(C)csc2=O)c(Cl)cc1F | 0.7 | 0.0
CCOCCCN(CC(=O)N(Cc1cccn1Cc1ccc(F)cc1)C1CCCCC1)C(=O)c1cc(OC)cc(OC)c1 | -8.8 | -6.3
CCC(C)(C)C1CCC2(CC1)NCCc1c2[nH]c2ccccc12 (stereo not given) | 9.4 | 7.5
CCN(CC)C(=O)c1nn(-c2ccccc2)c(=O)n(Cc2ccccc2Cl)c1=O | 10.9 | 11.1
Cc1cc(C)c(C(=O)N2CCC(CCC(=O)N3CCC(Cc4ccccc4)CC3)CC2)o1 | 1.7 | -0.1
O=C(O)c1nn(-c2ccccc2F)c(=O)n(Cc2cccc(Cl)c2)c1=O | -6.6 | -0.6
CC(C)CCN(CC(=O)N(Cc1cccn1Cc1ccccc1Cl)C1CCCCC1)C(=O)COc1ccccc1 | -10.7 | -16.7
O=C(CSc1nnc2ccc(-c3cccc([N+](=O)[O-])c3)nn12)Nc1ccccc1 | -12.9 | -4.6
Cc1cccc(-n2c(-c3ccccc3)cnc2SC(C)C(=O)N(C)C2CCS(=O)(=O)C2)c1C (stereo not given) | -0.2 | -1.9
COc1cccc(C(O)c2ncc(-c3ccccc3)[nH]2)c1 (stereo not given) | -3.4 | -5.4
